Rce1 inh: inhibitors of yeast Ras-converting enzyme. yeast membranes, quenched prenylated peptide cleavage fluorescence. calls only. 290,000 tested, 0.27% active. AID 2563;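 active means fall in fluorescence gain of 50% or more versus controls, with final raw signal at or below 3038400; inconclusive means same 50% fall but final raw signal above 3038400; inactive means fall in fluorescence gain under 50%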;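 further: plate controls were neutral control wells for no effect and wells lacking membranes for full effect; tested at 10 µM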
PABP polyA inh: PABP-poly(A) binding inhibition | P11940 | 290,000 tested, 1% active | PABP-poly(A) RNA binding, fluorescence polarization | inhibition, % at 35 µM;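 active means 50% or more with normal probe brightness, or confirmed in later tests; inconclusive means above 50% with abnormal brightness, or retests that disagree; inactive means below 50% or failed in later tests; about a fifth of its hits are not listed in these tables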;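 further: calls also rest on retests at 20 µM and on dose response follow-up; controls were probe without protein and protein plus probe with vehicle; some compounds called inactive have numbers as strong as hits; many hits fall short of the cut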
Target sequence (P11940 whole entry, looked up): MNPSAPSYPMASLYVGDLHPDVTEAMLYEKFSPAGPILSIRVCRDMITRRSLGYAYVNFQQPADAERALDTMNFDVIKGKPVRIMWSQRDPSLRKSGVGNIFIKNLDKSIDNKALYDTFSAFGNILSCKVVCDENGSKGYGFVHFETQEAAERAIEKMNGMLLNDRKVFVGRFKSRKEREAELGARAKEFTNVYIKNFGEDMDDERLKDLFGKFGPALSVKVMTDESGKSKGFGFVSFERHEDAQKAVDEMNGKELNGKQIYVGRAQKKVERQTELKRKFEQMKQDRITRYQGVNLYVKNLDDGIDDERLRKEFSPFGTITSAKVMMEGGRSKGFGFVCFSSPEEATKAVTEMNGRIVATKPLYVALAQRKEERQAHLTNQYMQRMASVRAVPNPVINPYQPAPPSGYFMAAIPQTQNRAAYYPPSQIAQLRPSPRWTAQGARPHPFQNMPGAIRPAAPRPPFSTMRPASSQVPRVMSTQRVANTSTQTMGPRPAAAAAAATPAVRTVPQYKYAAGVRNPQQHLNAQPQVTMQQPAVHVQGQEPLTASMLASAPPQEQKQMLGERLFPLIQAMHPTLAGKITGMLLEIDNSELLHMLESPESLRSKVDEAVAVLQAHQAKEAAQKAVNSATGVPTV
CSC inhib: blocks cancer stem cells; 300,000 tested, 1.1% active; cancer stem cell-like cells viability, luminescence; AID 2717; inhibition, % at 7.5 µM;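 active means mean at 75% or more and at least half the replicates too; inconclusive means mean and replicates disagree; tested in HMLE shEcad cells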;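 further: 0% = median of negative and 100% = median of positive control wells; the first replicate is given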
HIV Env fusion: inhibitors of HIV Env-mediated cell fusion; inhibition, % at 12.3 µM; 360,000 tested, 1.1% active; HeLa-JRFL Env/CEM21 cell fusion, luciferase;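 active means mean replicate inhibition score of at least 50 and every replicate individually at or above 50; inconclusive means only one of the two criteria met; inactive means mean below 50 and not all replicates reaching 50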;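 further: 0% = plate neutral controls and 100% = maraviroc near 300 nM; one replicate is shown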
MT1-MMP act inh: MT1-MMP (human) activation inhibition; HT1080 RFP-PRO-GFP cells, GFP/RFP ratio fluorescence, overnight; percent of plate control window, DMSO zero; GFP/RFP ratio change, % at 20 µM; 360,000 tested, 0.061% active;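 active means GFP/RFP ratio change of at least 30% with cell ATP level not reduced by more than half and red fluorescence within 50% of control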; further: strong numbers were not always called active
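Assay system: HT1080 RFP-PRO-GFP cells | Dosing: 20 µM single dose, 1% DMSO | Incubation: Cells overnight before dosing, compound overnight, 37 °C, 5% CO2 | Evaluation: GFP/RFP fluorescence ratio | Control set: DMSO-only wells and HT1080 RFP-L50D-GFP cell wells as references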
eIF4H inh: inhibitors of RNA binding by human eIF4H; Q15056; eIF4H fluorescence polarization binding assay; inhibition, % at 35 µM; 290,000 tested, 0.94% active;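 active means 50% or more with normal probe brightness, or confirmed in later tests; inconclusive means above 50% with abnormal brightness, or retests that disagree; inactive means below 50% or failed in later tests; about a fifth of its hits are not listed in these tables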;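 further: calls also rest on retests at 20 µM and on dose response follow-up; 0% = protein and probe with vehicle and 100% = probe without protein; strong numbers were not always called active; many hits fall short of the cut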
UUG fidelity: yeast start codon fidelity modulation; S. cerevisiae UUG-firefly luciferase reporter, luminescence/redox ratio; 350,000 tested, 0.13% active; activity score, % at 18.7 µM; AID 602363;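 active means replicate mean at a twofold rise or more, about +100% in these data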;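 further: firefly luciferase made from a UUG start codon reports start codon fidelity; reporter light over untreated wells divided by growth signal over untreated wells; some hits fall short of that in this replicate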
MT1-MMP act inh RFP: also measured in MT1-MMP act inh; calls as there; RFP signal change, %; measured here: RFP expression control read;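 0 = vehicle wells; hits needed this value within 50% of zero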
* = called active by the depositor; i = inactive; ? = inconclusive; / = no result given. A portion of the library. The share of hits here may be higher or lower than overall.

SMILES | Rce1 inh | PABP polyA inh | CSC inhib | HIV Env fusion | MT1-MMP act inh | MT1-MMP act inh RFP | eIF4H inh | UUG fidelity
CCCCN(C(=O)CSc1cc(C)c2ccccc2n1)c1c(N)n(Cc2ccccc2)c(=O)[nH]c1=O | i | -12 | / | -115 | -11 | -14 | -11 | 1
Cc1ccc(C(=O)Nc2ccc3cn[nH]c3c2)cc1S(=O)(=O)N1CCCCC1 | i | 11 | -3 | / | -2 | -11 | 8 | -11
Cc1nc2cc(C(F)(F)F)ccc2n1C1CCN(C(=O)N2CCOCC2)CC1 | i | -2 | -3 | 17 | -1 | 1 | -1 | -2
O=C(c1ccc(F)cc1)C1CCN(C(=O)Nc2ccccc2Cl)CC1 | i | ? | -15 | -44 | 5 | -3 | 3 | /
CC(C)CC(=O)Nc1ccc(C(=O)COC(=O)C2=COCCO2)cc1 | i | / | -4 | -4 | 0 | 1 | / | -15
Cc1cc(/C=C(\C#N)C(=O)O)c(C)n1CC1CCCO1 (stereo unspecified) | i | 2 | -9 | -3 | 0 | -2 | 5 | /
Cn1ncc(Cl)c1C(=O)Nc1cccnc1 | i | -2 | 3 | / | -3 | 3 | 6 | -23
Cc1ccc(SC(c2ccccc2)C(Cn2cncn2)C(=O)c2ccccc2)cc1 (stereo unspecified) | i | -4 | -9 | / | -1 | -3 | -4 | -14
CN(c1ccccc1)S(=O)(=O)c1cccc(NC(=O)C2=NNC(=O)CC2)c1 | / | / | 10 | 64* | 2 | -12 | / | -15
COc1ccc(/C(C)=N/N2C(=O)c3ccccc3NC2c2ccc(O)c(OC)c2)cc1 (stereo unspecified) | i | -4 | -7 | -5 | 14 | 6 | -5 | -4
O=C1[C@H]2[C@@H](/C=C/c3ccccc3)N3C(=O)CN(CCO)C(=O)[C@@]3(Cc3ccccc3)[C@H]2C(=O)N1c1ccccc1 | i | 1 | 17 | 28 | 2 | 1 | -8 | 1
Cc1c(Br)c([N+](=O)[O-])nn1CC(=O)N1CCc2ccccc21 | i | 20 | -4 | 5 | 1 | 3 | -2 | -6
O=C(Nc1nc2ccc(S(=O)(=O)N3CCCCC3)cc2s1)C1CCCO1 (stereo unspecified) | i | -15 | 9 | -54 | -1 | -4 | -19 | -7
COc1cccc2sc(NNC(=O)C3COc4ccccc4O3)nc12 (stereo unspecified) | i | 12 | / | -3 | 2 | 1 | 15 | /
C/C(=N\NC(=O)NC1CCCCC1)c1ccc(Cl)s1 | i | -5 | -9 | -3 | 2 | 0 | -10 | -9
CC(=O)Oc1ccc(-c2ccc(C(=O)OCC(=O)c3c(N)n(C)c(=O)n(C)c3=O)cc2)cc1 | / | / | -16 | -7 | 5 | -2 | / | -7
CC(c1nnc(SCC(=O)c2c(N)n(C)c(=O)n(C)c2=O)n1-c1ccc(Cl)cc1)N(C)C (stereo unspecified) | i | 3 | -4 | / | -5 | 3 | -2 | -30
COc1ccc(CCN(C(=O)c2ccccc2)C2=CC3CCC(C2)N3C)cc1OC (stereo unspecified) | i | 0 | / | / | / | / | -4 | /
COC(=O)c1ccc2nc(C3CCCCC3)c(Cc3ccccc3)n2c1 | / | / | / | 15 | -6 | -8 | / | 17
COc1cc(C(=O)Nc2nnc(C)s2)c([N+](=O)[O-])cc1OC | i | 7 | -13 | -11 | 3 | 6 | -5 | /
Cc1ccc(C(=O)N/N=c2\sc3ccccc3n2C)cc1 | i | -3 | -5 | 7 | -1 | 0 | -6 | /
CCc1ccc2oc(-c3cccc(NC(=O)c4cccnc4)c3)nc2c1 | i | -8 | 5 | / | 9 | -6 | -3 | -11
COc1cccc(OC)c1C(=O)Nc1cccc2c1CCCC2 | i | 5 | -6 | 3 | 5 | 4 | -8 | -5
NC(COCc1ccccc1)c1csc(Nc2ccc(C(F)(F)F)cn2)n1 (stereo unspecified) | / | / | / | -11 | 1 | 4 | / | -24
Cc1cc(NC(=O)CSCC(=O)N(C)Cc2ccc(F)cc2)no1 | i | 44 | -14 | 9 | 0 | 2 | 22 | -11
COc1ccc(CCNC(=O)c2c(O)c3ccccc3[nH]c2=O)cc1 | i | -6 | 4 | 7 | 7 | 1 | -6 | 3
CSc1ncnc2sc(C)c(C)c12 | i | -3 | 4 | -7 | -2 | 1 | -10 | /
CCCNC(=O)c1ccccc1C(=O)NC1(C(=O)NCCC)CCCC1 | i | 6 | -11 | 13 | 1 | 10 | 2 | -11
O=C(NCCN1CCOCC1)[C@H](Cc1ccccc1)N1C(=O)c2ccccc2C1=O | i | 3 | -5 | / | 1 | 0 | 6 | -4
Cc1nc2ccc(CCO)cc2s1 | i | 11 | -25 | -26 | 5 | 9 | 1 | /
CCOC(=O)c1ccc(NC(=O)CN(C)S(=O)(=O)c2ccc(Br)s2)cc1 | i | -5 | -1 | / | 9 | -3 | 2 | /
O=S1(=O)CC2SC(=S)N(Cc3ccccc3)C2C1 (stereo unspecified) | / | 7 | -15 | 5 | 3 | -2 | -2 | -11
Cn1c(CO)cnc1-c1ccccc1 | i | 6 | -10 | -6 | -4 | -4 | 8 | /
O=C(NCCO)/C(=C\c1cccc([N+](=O)[O-])c1)NC(=O)c1ccco1 | i | 8 | -11 | 19 | 1 | 2 | 0 | -31
COc1ccc(S(=O)(=O)N2CCCC(C(=O)O)C2)cc1 (stereo unspecified) | i | 4 | -8 | / | 2 | 5 | -3 | -15
C/C(CC(C)C)=N\NS(=O)(=O)c1ccc(C)c([N+](=O)[O-])c1 | i | 0 | -2 | 7 | -3 | 1 | 4 | -2
COc1ccc(CN2C(=O)C3C4C=CC(C4)C3C2=O)cc1 (stereo unspecified) | i | -3 | 8 | / | 7 | 2 | 2 | /
CCOc1ccc(S(=O)(=O)N2CCCCC2)cc1NC(=O)Cc1cccs1 | i | / | 13 | -89 | 3 | -3 | / | -2
CCOC(=O)c1nn(-c2ccc(C)cc2)c(=O)cc1OCC(=O)Nc1cc(C)ccc1OC | i | / | 10 | 9 | -4 | -1 | / | -7
Cc1noc(C)c1C(=O)Nc1cccnc1 | i | 0 | 2 | -56 | -4 | -9 | 2 | -15
O=C1CC(c2ccccc2)CC(O)=C1C=NCc1ccncc1 (stereo unspecified) | i | -4 | -11 | -3 | -1 | 3 | -2 | /
O=C(CCn1cccn1)N1CCCC(N2CCN(c3cccc(Cl)c3)CC2)C1 (stereo unspecified) | i | -6 | -5 | -21 | 2 | -1 | -11 | -12
O=C1C2CCCN2C(c2ccccc2F)N1c1ccc(Cl)cc1 (stereo unspecified) | i | 1 | 9 | -92 | 0 | 2 | -5 | -9
COc1ccccc1C(=O)COC(=O)Cn1[nH]c(=O)c2ccccc2c1=O | i | / | / | 5 | -1 | 2 | / | /
NC(COCc1ccccc1)c1csc(Nc2ccc(S(N)(=O)=O)cc2)n1 (stereo unspecified) | / | / | / | 6 | -1 | 1 | / | -1
COC(=O)N/N=C/c1ccc(OS(=O)(=O)c2ccc(C)cc2)c(OC)c1 | i | -8 | -5 | 21 | -5 | -5 | -8 | /
CCn1c(C)nc2cc(N)ccc21 | i | 16 | -6 | -2 | 3 | 5 | 12 | /
COc1ccccc1N1CCN(S(=O)(=O)c2cccc3nsnc23)CC1 | i | -3 | -2 | / | 3 | 0 | 0 | 3

Reformatted: entries from further up
Under each structure: Rce1 inh	PABP polyA inh	CSC inhib	HIV Env fusion	MT1-MMP act inh	MT1-MMP act inh RFP	eIF4H inh	UUG fidelity
> COc1ccccc1C(=O)COC(=O)Cn1[nH]c(=O)c2ccccc2c1=O
→ i	/	/	5	-1	2	/	/
> COC(=O)N/N=C/c1ccc(OS(=O)(=O)c2ccc(C)cc2)c(OC)c1
→ i	-8	-5	21	-5	-5	-8	/
> O=C(CCn1cccn1)N1CCCC(N2CCN(c3cccc(Cl)c3)CC2)C1 (stereo unspecified)
→ i	-6	-5	-21	2	-1	-11	-12

(cont.)
SMILES | Rce1 inh | PABP polyA inh | CSC inhib | HIV Env fusion | MT1-MMP act inh | MT1-MMP act inh RFP | eIF4H inh | UUG fidelity
Cc1cccc(C(=O)Oc2ccc3ccc(O)cc3c2)c1 | i | -2 | -9 | -54 | 0 | -1 | 3 | -4
CCc1ncc(C)nc1CC | / | 1 | -6 | / | -1 | 2 | -7 | -3
CCN(CC)/C(Sc1ccccc1)=C(\C(Cl)=C(Cl)Cl)[N+](=O)[O-] | i | -5 | -3 | 5 | 4 | 2 | 4 | /
CCCCCCCCNC(=O)c1cnccn1 | i | 5 | -7 | / | 1 | -1 | -4 | -15
Cc1ccc(S(=O)(=O)N2C[C@H]3C(=O)C[C@@H](c4cccc(Cl)c4)N(S(=O)(=O)c4ccc(C)cc4)[C@H]3C[C@H]2c2cccc(Cl)c2)cc1 | / | / | / | 23 | -7 | -8 | / | -19
C#Cc1ccc(CN2CCN(Cc3ccsc3)C(CCO)C2)cc1 (stereo unspecified) | i | 4 | 1 | 2 | -3 | 1 | -3 | /
COC(=O)C1(C)NC(c2ccco2)C2C(=O)N(c3ccc(F)cc3)C(=O)C21 (stereo unspecified) | i | 1 | -7 | -18 | -2 | 2 | 5 | 2
O=C(c1ccc(F)cc1)c1ccc(N2CCCC2)cc1 | i | 2 | -1 | / | 1 | 2 | -2 | /
CCCN(CCC)S(=O)(=O)c1ccc(NC(=O)Cc2cccs2)cc1 | i | -7 | / | 10 | -8 | -6 | 12 | -1
Cc1ccsc1C(=O)NC1CCCN(Cc2ccc(Cl)cc2)C1 (stereo unspecified) | i | -4 | 0 | -16 | -3 | -5 | -5 | -22
Cc1cc(C)c(NC(=O)CSc2nccn2C)c(C)c1 | i | -17 | -11 | 10 | 3 | -1 | -7 | -8
CC(=O)Nc1ccccc1NC(=O)C/C(C)=N/NC(=O)c1ccc([N+](=O)[O-])c(Cl)c1 | i | 1 | 3 | / | 8 | 1 | 1 | 11
Clc1ccccc1-c1nnc2n1CCCCC2 | i | 9 | -3 | 15 | 0 | -1 | 6 | -12
COc1ccc(CC(=O)N/N=C(/C)c2ccco2)cc1 | i | -10 | 4 | 22 | 5 | 11 | 2 | /
Cc1ccc(C(=O)Nc2nnn(C)n2)cc1 | i | 8 | -3 | -70 | -2 | -1 | 3 | -21
O=C(/C(=C/O)N=Nc1cccc(C(F)(F)F)c1)c1ccccc1 | / | -2 | -4 | 7 | 1 | -2 | -2 | /
COc1ccccc1NS(=O)(=O)c1ccc(C(N)=O)cc1 | i | 1 | -2 | 5 | 1 | -3 | 7 | /
Cc1ccc(S(=O)(=O)/N=C2\C=C(Nc3ccc(O)cc3)C(=O)c3ccccc32)cc1 | / | / | 133* | / | -19 | -28 | / | -28
O=c1c2c(nc3c(-c4ccc(Cl)cc4)c[nH]n13)CCC2 | i | -8 | 7 | ? | 8 | -7 | 13 | 12
COc1ccc(NC(=O)C(=O)c2cn(CC(=O)N3CCCC3)c3ccccc23)cc1OC | i | -10 | 25 | 2 | 6 | -2 | 1 | -13
O=C(COC(=O)c1ccc(-c2cnc3ccccc3n2)cc1)c1ccccc1 | i | 6 | 17 | -16 | -4 | -8 | 3 | -19
Nc1cnnc(N/N=C\c2ccccc2)c1Cl | i | / | 1 | -8 | -1 | 0 | / | -24
O=C1CC(N2CCC(c3nc4ccccc4o3)CC2)C(=O)N1c1cc(Cl)cc(Cl)c1 (stereo unspecified) | i | -2 | -10 | -27 | 8 | 4 | -8 | -10
COc1ccc(S(=O)(=O)N(CC(=O)O)c2ccc(C)cc2)cc1 | i | 5 | -16 | / | 1 | 2 | -9 | -16
C#Cc1ccc(NC(=O)C2(C)CCN2C(=O)Cc2ccc(C(C)(C)C)cc2)cc1 (stereo unspecified) | / | / | / | 47 | -2 | -27 | / | -30
Cc1ccc(S(=O)(=O)NCCC(=O)Nc2ccncc2)cc1C | i | / | -7 | -5 | -4 | -5 | / | -12

Screening results from PubChem.
